# High-throughput results deposited in PubChem by several laboratories.
# MT1-MMP act inh = blockers of MT1-MMP proenzyme processing, primary screen, HT1080 RFP-PRO-GFP cells, GFP/RFP fluorescence; GFP/RFP ratio fluorescence, overnight; percent of plate control window, DMSO zero; 360,000 tested, 0.061% active; GFP/RFP ratio change, % at 20 µM; Matrix metalloproteinase-14 (Homo sapiens), P50281;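 active = GFP/RFP ratio change of at least 30% with cell ATP level not reduced by more than half and red fluorescence within 50% of control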; note: strong numbers were not always called active
#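 Assay system: RFP-PRO-GFP reporter HT1080 cells; read-out basis: GFP/RFP fluorescence ratio; benchmarks: DMSO wells and RFP-L50D-GFP cells; doses: 20 µM single dose, 1% DMSO; schedule: overnight cell settling, then overnight compound exposure, 37 °C, 5% CO2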
# PABP polyA inh = PABP poly(A) RNA binding inhibitors, primary screen, biochemical, fluorescence polarization, uHTS; AID 2014, 2009; 290,000 tested, 1% active; inhibition, % at 35 µM;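 active = 50% or more with normal probe brightness, or confirmed in later tests; inconclusive = above 50% with abnormal brightness, or retests that disagree; inactive = below 50% or failed in later tests; about a fifth of its hits are not listed in these tables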;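 note: calls also rest on retests at 20 µM and on dose response follow-up; controls were probe without protein and protein plus probe with vehicle; some compounds called inactive have numbers as strong as hits; many hits fall short of the cut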
# Target sequence (P11940 whole entry, looked up): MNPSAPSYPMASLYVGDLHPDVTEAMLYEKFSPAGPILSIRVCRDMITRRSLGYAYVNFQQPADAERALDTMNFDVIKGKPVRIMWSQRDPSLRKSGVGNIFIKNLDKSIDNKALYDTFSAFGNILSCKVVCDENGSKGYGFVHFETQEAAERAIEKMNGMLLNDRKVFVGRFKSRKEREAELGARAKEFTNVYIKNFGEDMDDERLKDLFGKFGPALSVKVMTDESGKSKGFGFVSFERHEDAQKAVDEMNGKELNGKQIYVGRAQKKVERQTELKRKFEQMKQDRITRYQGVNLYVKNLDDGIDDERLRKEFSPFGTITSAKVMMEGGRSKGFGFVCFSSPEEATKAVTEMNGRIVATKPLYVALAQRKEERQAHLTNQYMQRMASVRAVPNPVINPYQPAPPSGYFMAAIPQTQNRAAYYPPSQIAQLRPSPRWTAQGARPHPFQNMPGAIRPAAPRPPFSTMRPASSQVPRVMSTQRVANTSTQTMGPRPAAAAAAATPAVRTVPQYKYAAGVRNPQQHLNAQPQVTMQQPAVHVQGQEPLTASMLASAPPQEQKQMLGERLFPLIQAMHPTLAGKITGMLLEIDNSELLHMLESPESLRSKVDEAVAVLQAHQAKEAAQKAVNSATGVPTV
# Rce1 inhib = yeast Rce1p protease inhibitors, primary screen, biochemical, fluorescence, cell-free homogeneous; calls only; yeast membranes, quenched prenylated peptide cleavage fluorescence; CAAX prenyl protease 2 (Saccharomyces cerevisiae (strain ATCC 204508 / S288c)), Q03530; 290,000 tested, 0.27% active;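 active = fall in fluorescence gain of 50% or more versus controls, with final raw signal at or below 3038400; inconclusive = same 50% fall but final raw signal above 3038400; inactive = fall in fluorescence gain under 50%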;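 note: plate controls were neutral control wells for no effect and wells lacking membranes for full effect; tested at 10 µM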
# eIF4H inh = human eIF4H binding inhibitors, primary screen, translation initiation inhibitor project, biochemical, uHTS, fluorescence polarization | AID 2012, 2009 | inhibition, % at 35 µM | 290,000 tested, 0.94% active | Eukaryotic translation initiation factor 4H (Homo sapiens), Q15056 | eIF4H fluorescence polarization binding assay;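 active = 50% or more with normal probe brightness, or confirmed in later tests; inconclusive = above 50% with abnormal brightness, or retests that disagree; inactive = below 50% or failed in later tests; about a fifth of its hits are not listed in these tables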;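 note: calls also rest on retests at 20 µM and on dose response follow-up; 0% = protein and probe with vehicle and 100% = probe without protein; strong numbers were not always called active; many hits fall short of the cut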
# CSC inhib = cancer stem cell viability inhibitors, primary screen, luminescence | cancer stem cell-like cells viability | inhibition, % at 7.5 µM | 300,000 tested, 1.1% active | AID 2717, 2010;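 active = mean at 75% or more and at least half the replicates too; inconclusive = mean and replicates disagree; tested in HMLE shEcad cells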;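 note: 0% = median of negative and 100% = median of positive control wells; the first replicate is given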
# Env fusion inh = inhibitors of HIV-1 Env-driven cell-cell fusion, primary screen, HeLa-JRFL effector, CEM21 target cells, luciferase; 360,000 tested, 1.1% active; AID 651610, 2012; inhibition, % at 12.3 µM;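 active = mean replicate inhibition score of at least 50 and every replicate individually at or above 50; inconclusive = only one of the two criteria met; inactive = mean below 50 and not all replicates reaching 50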;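 note: 0% = plate neutral controls and 100% = maraviroc near 300 nM; one replicate is shown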
# Yeast UUG start = modulators of yeast start codon fidelity, primary screen, whole organism, S. cerevisiae, single point, plate reader; S. cerevisiae UUG-firefly luciferase reporter, luminescence/redox ratio; activity score, % at 18.7 µM; 350,000 tested, 0.13% active;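 active = replicate mean at a twofold rise or more, about +100% in these data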;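 note: firefly luciferase made from a UUG start codon reports start codon fidelity; reporter light over untreated wells divided by growth signal over untreated wells; some hits fall short of that in this replicate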
# MT1-MMP act inh RFP = also measured in MT1-MMP act inh; calls as there; RFP signal change, %; measured here: RFP expression control read;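 0 = vehicle wells; hits needed this value within 50% of zero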
# Numbers without * were called inactive; i = inactive; ? = inconclusive; nt = no result given. A portion of the library; rates above refer to the full screens.
SMILES,MT1-MMP act inh,MT1-MMP act inh RFP,PABP polyA inh,Rce1 inhib,eIF4H inh,CSC inhib,Env fusion inh,Yeast UUG start
Cc1ccc(C(C)(C)NC(=O)C2CCC(=O)N(C3CCCCCC3)C2)cc1 (stereo not drawn),-1,0,11,i,0,-11,-27,-5
CSc1cccc(NC(N)=O)c1,0,4,-7,i,-7,8,11,-12
CCOc1ccc(Nc2ccc(N)c(S(=O)(=O)O)c2)cc1,9,3,nt,nt,nt,nt,6,-6
Cc1cc(Cl)ccc1Oc1ccc(C(N)=O)cc1[N+](=O)[O-],3,-1,18,i,3,65,-7,-25
Cc1ccc(NC(=O)CN2CCN(c3ccccn3)CC2)c(Cl)c1,3,8,2,i,4,8,nt,nt
Cc1cc(=O)oc2cc(OCC(O)CN3CCN(c4ccc(F)cc4)CC3)ccc12 (stereo not drawn),1,0,1,i,4,7,13,-15
CCc1cccc(CC)c1NC(=O)COC(=O)/C(C#N)=C/c1ccc(OC)cc1,2,0,-7,i,10,-19,15,nt
COc1cccc(CNC(=O)C(=O)NCC(c2ccco2)N2CCOCC2)c1 (stereo not drawn),2,4,4,i,5,-6,-11,nt
Nc1ncnc(NCc2ccc(F)cc2)c1[N+](=O)[O-],-11,-7,6,i,-1,-15,45,nt
CC(=O)Nc1nnc(S(=O)(=O)N2CCN(c3ccc([N+](=O)[O-])cc3Cl)CC2)s1,-11,-5,0,i,-9,-9,-2,-10
CC(=O)NCC(=O)NC1(C(=O)NC2CCCC2)CCCCC1,2,8,1,i,-5,-18,nt,-21
Cc1ccc(N2C(N)=C(C#N)C(c3cccs3)C3=C2CC(C)(C)CC3=O)cc1 (stereo not drawn),2,-2,6,i,-4,-6,-22,-12
COCC(C)NC(C(=O)Nc1ccc(C)c(Cl)c1)c1ccccc1 (stereo not drawn),2,-4,-1,i,3,-13,22,-20
O=C(C1CC1)N1CCCN(C(=O)C2CC2)CC1,-1,-1,-5,nt,-2,-10,nt,-13
Cc1[nH]c(=O)[nH]c(=O)c1Cc1cccc2ccccc12,4,5,-9,i,8,0,-11,nt
CC1(C)SCC(C(=O)O)N1C=O (stereo not drawn),1,1,-6,i,-10,-2,nt,2
COc1ccc(Oc2coc3cc(OC(=O)/C=C/c4ccccc4)ccc3c2=O)cc1,0,5,-14,i,-5,6,nt,3
CCOc1ccc2[nH]c3nc(SCC(=O)OC(C)C)nnc3c2c1,2,-2,1,i,-1,-5,3,-17
Cn1c(=O)c(C(=O)COC(=O)c2cc(C(F)(F)F)nc3ccccc23)c(N)n(Cc2ccccc2)c1=O,nt,nt,-12,i,-9,-15,11,nt
Cc1cc(C(=O)NNC(=O)c2cccc(S(=O)(=O)N3CCOCC3)c2)c2ccccc2n1,-2,0,8,i,6,nt,16,-11
Cn1cnc([N+](=O)[O-])c1Sc1ccncn1,3,0,nt,nt,nt,nt,-8,-35
O=C(CCl)Nc1ccc2c(c1)OCO2,5,4,1,i,-5,1,1,-17
COc1cccc(CN2CCN(Cc3cccc(Br)c3)CC2)c1OC,-1,0,4,i,3,2,16,-15
COc1ccccc1CN=C1NC(=O)C(CC(=O)Nc2ccc(OC)c(OC)c2)S1 (stereo not drawn),0,-4,13,i,24,-7,-1,-17
COc1cc(CNCCCN2CCOCC2)cc(Br)c1OCc1ccc(Cl)cc1,-6,-11,0,i,-1,-9,-10,-25
O=C(COC(=O)COc1ccc(Cl)cc1)Nc1ccc2c(c1)OCCO2,5,3,nt,nt,nt,-3,nt,-10
CCOc1ccc(C(NC(C)=O)c2ccc(OC)c(OC)c2)cc1 (stereo not drawn),1,1,-11,i,5,1,-5,1
Cn1nc(C(C)(C)C)cc1NC(=O)Nc1ccc(F)cc1F,-1,1,5,i,-14,-16,19,-7
O=C(Nc1cccc(F)c1)N1C2CCC1CC(O)(c1cccnc1)C2 (stereo not drawn),0,0,-1,i,-5,6,6,nt
O=C(CN1CCN(CC(=O)Nc2ccc3c(c2)OCO3)CC1)Nc1ccc(F)cc1,2,1,14,i,-11,-5,nt,-9
CC(C)C[C@@H](CNC(=O)OC(C)(C)C)NC(=O)c1nc[nH]c1C(=O)N[C@@H](CC(C)C)C(=O)CNC[C@H](CC(C)C)NC(=O)c1nc[nH]c1C(=O)N[C@@H](Cc1c[nH]c2ccccc12)C(=O)OC(C)(C)C,0,0,nt,nt,nt,nt,-9,-17
CCOc1ccccc1N(CC(=O)NCc1ccc(OC)cc1)S(C)(=O)=O,-3,-1,6,i,5,7,nt,nt
COc1cc(C)c(Br)cc1S(=O)(=O)NCc1cccs1,2,2,-6,i,-13,-1,-6,15
O=C(Cc1ccc(F)cc1)Nc1ccccc1Sc1ccccc1,-3,-7,-8,i,-11,16,19,nt
O=C1c2ccccc2C(=O)c2c1cccc2N(CCO)CCO,-1,6,?,i,?,5,3,-20
CCC1=Nc2cc(C(=O)O)ccc2Sc2ccccc21,8,12,3,i,17,-14,-6,-6
CCn1nc(NS(=O)(=O)c2ccc(F)cc2)c2cc3cccc(C)c3nc21,2,4,2,i,-7,9,3,-8
O=c1oc2ccccc2cc1-c1nc2c(s1)CCc1ccccc1-2,-14,9,7,i,-4,-5,9,nt
Cc1onc(-c2c(F)cccc2Cl)c1C(=O)N(C)C1CCCCC1,1,2,-6,i,-7,7,2,-33
CC(NC(=O)c1ccccc1NC(=O)c1ccncc1)c1ccccc1 (stereo not drawn),6,5,-4,i,0,7,-3,nt
COc1cc(OC)cc(-c2c(C#Cc3ccsc3)c3cc(-c4ccccc4OC)ccc3n2C)c1,0,6,nt,nt,nt,nt,-72,-8
Cc1cc(CNC(=O)COc2ccc(F)cc2F)c2ccccc2n1,-4,-18,24,i,-1,-4,3,nt
Cc1c(C(=O)O)sc2nc3n(c(=O)c12)CCC(C)CC3 (stereo not drawn),4,4,-3,i,-4,-9,nt,nt
C=CCN(CC=C)S(=O)(=O)c1ccc(NC(=S)NC(=O)c2ccc(-c3ccccc3)cc2)cc1,2,-16,-8,i,1,3,nt,-10
COc1ccc(S(=O)(=O)N2CCOCC2)cc1NC(=O)c1cc2ccccc2o1,-5,-1,nt,nt,nt,nt,-9,-9

# Entries of single compounds, looked up by structure:
# CCOc1ccc(C(NC(C)=O)c2ccc(OC)c(OC)c2)cc1 (stereo not drawn) in the list: MT1-MMP act inh: 1; MT1-MMP act inh RFP: 1; PABP polyA inh: -11; Rce1 inhib: i; eIF4H inh: 5; CSC inhib: 1; Env fusion inh: -5; Yeast UUG start: 1
# Nc1ncnc(NCc2ccc(F)cc2)c1[N+](=O)[O-] in the list: MT1-MMP act inh: -11; MT1-MMP act inh RFP: -7; PABP polyA inh: 6; Rce1 inhib: i; eIF4H inh: -1; CSC inhib: -15; Env fusion inh: 45; Yeast UUG start: nt

# Further results:
SMILES,MT1-MMP act inh,MT1-MMP act inh RFP,PABP polyA inh,Rce1 inhib,eIF4H inh,CSC inhib,Env fusion inh,Yeast UUG start
CC(=O)N/C(=C\c1ccc(F)cc1)C(=O)N(C)C,0,-4,12,i,-1,-12,7,nt
Cc1cc(NC(=S)N(CCN2CCCCC2)Cc2ccco2)ccc1Cl,2,-4,12,i,1,nt,21,-25
CC(=O)c1ccc(OCc2cc(C(=O)NCCn3nc(C)cc3C)no2)cc1,-6,-2,-3,i,-2,-6,2,-2
CCCCn1c(N)c(N(CC)C(=O)C2COc3ccccc3O2)c(=O)[nH]c1=O (stereo not drawn),-5,0,nt,nt,nt,nt,-74,-10
COc1ccc(C(C)C)cc1S(=O)(=O)n1ccnc1C,-1,2,6,i,-9,-6,-6,-8
COc1cc(/C=C/C(=O)NCCN2CCOCC2)cc(OC)c1OC,3,4,-2,i,-7,-4,-7,nt
O=C(NC(c1ccccc1)c1ccccc1)c1ccccc1,-5,2,nt,nt,nt,nt,-12,-20
COc1ccccc1C=NNc1ccc([N+](=O)[O-])cn1,-5,4,nt,nt,nt,nt,0,-8
CCCC(c1nnnn1Cc1ccco1)N1CCC(C(N)=O)CC1 (stereo not drawn),4,4,32,i,15,-2,nt,-15
Cc1cccc(/C=c2\s/c(=C\C(=O)C(C)(C)C)[nH]c2=O)c1,-5,-5,1,i,5,44,nt,nt
Cc1cccc(C)c1NC(=O)NNC(=O)c1cc(C(C)(C)C)nn1Cc1ccccc1,3,2,-5,i,7,-13,14,nt
CCOC(=O)N1CCN(C(=O)c2ccc3c(c2)NC(=O)/C(=C/c2ccccc2)S3)CC1,-10,-1,nt,i,nt,7,8,-17
CSc1ccc(S(=O)(=O)N2CCC(C(=O)NCCCn3ccnc3)CC2)cc1,-6,-3,-1,i,-11,42,2,-12
O=C(NCc1ccco1)c1cccc(NC(=O)c2ccco2)c1,-5,-2,17,i,13,60,7,-18
COc1ccc(-c2nn(-c3ccccc3)cc2/C=C/C(=O)O)cc1[N+](=O)[O-],2,3,-2,i,-4,23,6,-1
CC(C)(C)n1nc2c(c1NC(=O)Cc1ccc(F)cc1)CS(=O)(=O)C2,-4,-1,-1,i,1,8,1,-14
COc1ccccc1NS(=O)(=O)c1ccc(N/N=C/c2c(C)nn(-c3ccccc3)c2N2CCCC2)c([N+](=O)[O-])c1,13,-7,-3,i,0,53,48,nt
CC1=C(C(=O)Nc2ccccc2)C(c2ccccn2)n2nc(CCCO)nc2N1 (stereo not drawn),7,8,0,i,8,-6,0,-3

# No new results follow: an excerpt of the list.
SMILES,MT1-MMP act inh,MT1-MMP act inh RFP,PABP polyA inh,Rce1 inhib,eIF4H inh,CSC inhib,Env fusion inh,Yeast UUG start
COc1cc(C)c(Br)cc1S(=O)(=O)NCc1cccs1,2,2,-6,i,-13,-1,-6,15
O=C(Cc1ccc(F)cc1)Nc1ccccc1Sc1ccccc1,-3,-7,-8,i,-11,16,19,nt
O=C1c2ccccc2C(=O)c2c1cccc2N(CCO)CCO,-1,6,?,i,?,5,3,-20

# Six compounds drawn at random from those above:
SMILES,MT1-MMP act inh,MT1-MMP act inh RFP,PABP polyA inh,Rce1 inhib,eIF4H inh,CSC inhib,Env fusion inh,Yeast UUG start
COc1ccc(-c2nn(-c3ccccc3)cc2/C=C/C(=O)O)cc1[N+](=O)[O-],2,3,-2,i,-4,23,6,-1
Cc1cccc(C)c1NC(=O)NNC(=O)c1cc(C(C)(C)C)nn1Cc1ccccc1,3,2,-5,i,7,-13,14,nt
Cc1cc(NC(=S)N(CCN2CCCCC2)Cc2ccco2)ccc1Cl,2,-4,12,i,1,nt,21,-25
COc1cc(/C=C/C(=O)NCCN2CCOCC2)cc(OC)c1OC,3,4,-2,i,-7,-4,-7,nt
COc1ccc(C(C)C)cc1S(=O)(=O)n1ccnc1C,-1,2,6,i,-9,-6,-6,-8
CC1=C(C(=O)Nc2ccccc2)C(c2ccccn2)n2nc(CCCO)nc2N1 (stereo not drawn),7,8,0,i,8,-6,0,-3
